Bioassay records from PubChem BioAssay.
TRPML1 ag – activates the human TRPML1 channel; 410,000 compounds, 0.12% hits; TRPML1-expressing cells, Ca2+ dye fluorescence, FDSS; host cell line not named in the record; reference of the full effect not given here; AID 624414; activation, % (concentration not given with the values); Q9GZU1; in the data active = activation above about 50%; inconclusive = about 30% to 50%; inactive = below about 30%; also: 0% is about no effect; the text of the record puts the active cut at 80%
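Tetracycline-induced TRPML1-DL cells are seeded and incubated overnight before loading with a no-wash Ca2+ dye and quencher. Agonist activity is taken from the 110 s fluorescence read following compound pin-transfer on an FDSS, before EC80 54-4 challenge.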
CtBP-E1A inh – CtBP/E1A binding inhibition. AlphaScreen GST-E1A/His-CtBP binding, 1536-well; hits give low values; control for the full effect not named in the record. activity change, % (concentration not given with the values). 340,000 compounds, 0.49% hits; in the data active means activity change below about -65%; inconclusive means about -30% to -65%; inactive means above about -30%; also: % is scaled to controls: 0 for no effect and ±100 for the full control effect
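AlphaScreen with 125 nM GST-E1A and 125 nM His-CtBP (5X stocks) in Tris pH 8.0, 300 mM NaCl, BSA, Tween 20, TCEP. Compounds preincubated 2 h at 37 deg C, then glutathione donor/nickel acceptor beads added for 1 h at 37 deg C in dark.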
D2 agonist – agonists of human D2 dopamine receptor (beta-arrestin) | 360,000 compounds, 0.084% hits | AID 624465 | DiscoveRx PathHunter D2 beta-arrestin, luminescence, 90 min; 100% = 57 uM dopamine signal | P14416 | activation, % (test concentration not listed); in the data active = activation above about 40%; inconclusive = about 15% to 40%; inactive = below about 15%; also: compound concentration not given in the record; the text of the record calls up to 30% inactive
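DiscoveRx PathHunter D2 beta-arrestin cells (2,100/well) attached overnight, then compound-stimulated 90 min at 37 C in HBSS/10 mM HEPES/0.1% Tween-20 buffer; beta-galactosidase complementation read by luminescence after 1 h at ambient temperature. Dopamine 57 uM final (EC100) as control.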
PINK1 modulator – changes PINK1 expression. PINK1 immunofluorescence, high-content cytometry, 24 h. 410,000 compounds, 0.2% hits. Potency, µM (top dose mostly 76.6 µM), inactives show at the top dose activation (PINK1 increase), most hits filed as activators. AID 624263; active = well fitted activation curve with a large enough effect; inconclusive = small, poorly fitted or top-dose-only effect; inactive = flat fitted curve, though single readings scatter; cell line not stated here;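 also: potency is read from the fitted curve at half-maximal effect; % of control where 0% means no effect; nearly all actives have a fitted effect of over 65% in size; a mitochondrial uncoupler was the plate control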
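Readout is PINK1 immunofluorescence, quantified alongside mitochondrial, cell and nuclear markers by laser-scanning microplate cytometry. Cells from a stable line were exposed to compound titrations (5 concentrations) for 24 hours, with CCCP controls.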
Six1-Eya2 blk – blocks human Six1 binding to Eya2; Q15475+O00167; AlphaScreen GST-Six1/His-Eya2 binding, biochemical; hits give low values; control for the full effect not named in the record; activity change, % (concentration not given with the values); 360,000 compounds, 0.56% hits; AID 651725; in the data active = activity change below about -65%; inconclusive = about -30% to -65%; inactive = above about -30%; also: % is scaled to controls: 0 for no effect and ±100 for the full control effect
Target sequence (O00167 whole entry, looked up): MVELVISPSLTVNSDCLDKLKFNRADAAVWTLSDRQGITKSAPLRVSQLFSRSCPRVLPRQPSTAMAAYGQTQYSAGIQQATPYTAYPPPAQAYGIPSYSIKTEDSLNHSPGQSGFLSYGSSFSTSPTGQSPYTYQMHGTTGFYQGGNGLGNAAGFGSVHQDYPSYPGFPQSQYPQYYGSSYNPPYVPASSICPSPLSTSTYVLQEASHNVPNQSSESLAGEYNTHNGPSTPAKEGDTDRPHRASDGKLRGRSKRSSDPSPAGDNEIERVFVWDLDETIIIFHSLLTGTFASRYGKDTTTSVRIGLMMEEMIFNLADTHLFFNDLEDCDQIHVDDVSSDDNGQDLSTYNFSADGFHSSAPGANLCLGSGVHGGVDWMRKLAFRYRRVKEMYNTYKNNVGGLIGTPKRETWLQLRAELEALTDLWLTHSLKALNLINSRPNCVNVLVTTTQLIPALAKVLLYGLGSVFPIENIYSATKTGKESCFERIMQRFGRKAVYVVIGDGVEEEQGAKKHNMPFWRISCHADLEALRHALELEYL
Target sequence (Q15475 whole entry, looked up): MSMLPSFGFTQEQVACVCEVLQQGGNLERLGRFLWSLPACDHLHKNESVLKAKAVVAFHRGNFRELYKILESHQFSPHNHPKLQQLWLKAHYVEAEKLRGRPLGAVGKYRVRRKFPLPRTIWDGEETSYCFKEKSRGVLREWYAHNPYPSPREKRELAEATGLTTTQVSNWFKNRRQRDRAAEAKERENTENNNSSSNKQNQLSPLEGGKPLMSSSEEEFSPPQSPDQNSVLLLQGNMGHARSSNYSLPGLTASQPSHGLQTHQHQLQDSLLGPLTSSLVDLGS
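Compounds are tested against tagged Six1 and Eya2 proteins bridged by glutathione donor and nickel acceptor beads; after a one-hour incubation at 37 °C without light, AlphaScreen emission is recorded.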
D2 potentiator – human D2 receptor positive allosteric modulation | 360,000 compounds, 0.23% hits | DiscoveRx D2 beta-arrestin cells, luminescence, 90 min; 100% = 57 uM dopamine signal | P14416 | potentiation, % (no concentration beside the values); active = potentiation of 50% or more; inconclusive = 30% to 50%; inactive = 30% or less;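 also: compound concentration not given in the record; tested on top of an EC20 dose of dopamine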
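PathHunter D2 cells, attached overnight at 37 deg C, received compound in DMSO plus dopamine at EC20 (50 nM final) for 90 min at 37 deg C. Beta-arrestin recruitment was read as luminescence after 1 h with detection reagent at ambient temperature.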
* hit, by the source's call; ? = inconclusive; nt = no result given; & = joins results of further samples; [ ] = another dose, or the depositor's remark.

Every second line gives: PINK1 modulator	CtBP-E1A inh	Six1-Eya2 blk	TRPML1 ag	D2 potentiator	D2 agonist
- CC(C)CCN1CCN(Cc2cccc3nonc23)CC1CCO (configuration not stated)
 : 1.0%	4.9	1.5	-0.3	-7.3	-2.1
- CN(C)S(=O)(=O)c1ccc(N2CCCC2)c(C(=O)N2CCC(C(N)=O)CC2)c1
 : 0.1%	-11.9	0.6	0.4	-13.0	-2.6
- CCN1C[C@@H]2[C@@H]3C(=O)N(C)C(=O)[C@@H]3[C@](CC)(C1=O)N2C(=O)c1ccc(F)cc1
 : -0.7%	7.4	-1.3	-0.5	-2.7	-1.7
- COc1ccc(-c2[nH]ncc2CN(C)Cc2ccccn2)c(OC)c1
 : 0.5%	-17.1	?	-0.4	-12.3	-1.7
- COc1ccc(C(=O)NCc2nnc(SCC(=O)Nc3cc(C)cc(C)c3)o2)cc1OC
 : 0.0%	-0.8	-3.6	1.9	-11.9	-0.7
- Cc1nc(SC(C)C(=O)NCC2CCCO2)c2cc(-c3ccccc3)sc2n1 (configuration not stated)
 : -1.8%	-0.8	-2.8	-0.2	-8.4	-4.0
- CCc1c(C)nc(N2CCN(c3ccc(Cl)cc3)CC2)[nH]c1=O
 : 7.1%	-0.5	2.8	-1.1	-1.6	0.7
- Cc1ccc(S(=O)(=O)CCSc2nc(C)cc(C(F)(F)F)c2C#N)cc1
 : 0.5%	24.4	23.6	-1.2	-11.1	1.4
- Cc1ccc2nc(NC(=O)C3CC(=O)N(Cc4ccco4)C3)sc2c1 (configuration not stated)
 : 3.7%	-23.7	-4.9	-0.4	-5.8	-2.0
- CCN(CC)CCNC(=O)CNC(=O)c1nn(-c2ccc(OC)c(OC)c2)c(=O)c2ccccc12
 : 1.4%	4.1	1.0	-0.7	-9.8	-2.9
- Cc1ccccc1S(=O)(=O)Nc1ncnc2sccc12
 : 1.4%	nt	5.7	0.4	0.7	-0.9
- COc1ccc2nc(NC(=O)c3ccc4ncsc4c3)sc2c1
 : 4.1%	-25.5	21.8	-0.3	-6.3	?
- C#CCN(C[C@@H]1[C@@H](OC(=O)NCC2CCCCC2)[C@@H](OC(=O)NCC2CCCCC2)Cn2c(=O)ccc(=O)n21)S(=O)(=O)c1ccc(C)cc1
 : -0.2%	-2.7	17.8	0.1	-6.1	-8.2
- O=C(NCCc1cccs1)C1CC(c2ccc([N+](=O)[O-])cc2)=NO1 (configuration not stated)
 : 2.7%	32.0	19.4	0.8	4.0	3.9
- Cc1nn(C)c(Oc2cccc(Cl)c2)c1C=O
 : -1.2%	0.0	6.0	-0.5	-11.3	0.3
- O=C1NC(CCc2ccccc2)C(=O)N1Cc1ccccc1Cl (configuration not stated)
 : 0.0%	9.9	6.9	0.2	-2.7	-0.3
- Cc1ccc(S(=O)(=O)NC(=O)c2cc(C)n(-c3cc(S(=O)(=O)N4CCOCC4)ccc3N3CCCC3)c2C)cc1
 : -2.8%[38.3 µM]	-3.8	-5.2	-0.4	2.4	0.4
- Oc1c(CN2CCOCC2)ccc(CN2CCOCC2)c1O
 : -2.0%	-7.2	-16.6	-0.5	6.7	9.2
- O=c1c2ccccc2ncn1-c1ccc(Br)cc1[N+](=O)[O-]
 : 0.1%	-9.0	-10.0	-0.4	2.5	8.3
- CCOc1ccc(CCNC(=O)CN2C(=O)c3cccnc3Oc3ccc(C)cc32)cc1OCC
 : 2.7%&0.3%	-3.5	-7.3	2.4&-0.3	-1.0	-1.2
- O=C(C[n+]1ccc(/C=N/O)cc1)N1CCCCC1
 : -1.3%	6.8	-21.5	-0.2	-11.1	-2.9
- Fc1c(F)c(F)c(N=Cc2ccc3ncccc3c2)c(F)c1F
 : -0.2%	2.3	1.7	0.4	2.5	-2.6
- CCn1c(SCC(=O)NC2CCCC2)nnc1-c1cccnc1
 : 2.1%	-13.1	-2.3	0.4	-2.7	0.9
- NC(=O)CCC(NC(=O)c1ccc(Cl)cc1)C(=O)O (configuration not stated)
 : -0.3%	9.2	0.7	-0.8	-6.6	2.8
- CC1=C(C(=O)Nc2ccccc2)C(c2cccnc2)n2ncnc2N1 (configuration not stated)
 : -1.7%	-26.3	-0.9	-0.2	-0.9	1.9
- CC(C)(C)OC(=O)N1CCC(C(=O)Nc2cccc(C(=O)NCc3ccccc3)c2)CC1
 : -0.8%	5.3	-4.0	0.3	nt	2.3
- COc1ccc(C2CC(=O)Oc3c2c(=O)n(C)c2ccccc32)c(OC)c1OC (configuration not stated)
 : 0.2%&2.9%	nt	-7.9	-0.2&0.4	-11.1	3.0
- O=C(NCCC(F)(F)F)C1Cc2c(-c3cccc(F)c3)ccnc2O1 (configuration not stated)
 : 1.9%	5.0	2.4	-0.7	-8.7	-1.1
- O=C(c1ccc(-c2ccc([N+](=O)[O-])cc2)o1)N1CCCC(C(F)(F)F)C1 (configuration not stated)
 : 1.0%	-6.2	?	2.3	-8.7	-3.0
- CCOC(=O)/C(C#N)=C/c1c(N2CCN(C)CC2)nc2ccccn2c1=O
 : -1.8%	-0.1	-1.4	0.3	-9.5	-1.1
- CCN(CC(=O)NCc1cccs1)C(=O)c1cc(=O)[nH]c2ccccc12
 : 0.3%	0.5	-2.3	0.6	-15.3	0.4
- CCn1c(COc2ccccc2C)nnc1SCC(=O)N1CCN(c2ccccc2)CC1
 : -1.0%[38.3 µM]	-1.7	-7.4	-0.3	-2.3	1.1
- Cc1ccc(NC(=O)Cn2ncc(Cl)c(Cl)c2=O)cc1S(=O)(=O)N1CCCCC1
 : 0.4%	1.0	-8.3	0.5	15.4	7.9
- COc1cc(OC)c2c(-c3cccc(-c4ccc(CO)cc4)c3)cc(=O)oc2c1
 : 6.9%	-9.6	-7.9	0.4	4.7	-0.7
- CCOC(=O)c1[nH]c(C)c(C(=O)OCC(=O)NC(C)c2ccc(F)cc2)c1C (configuration not stated)
 : 9.2%	nt	5.1	0.1	-5.4	-1.5
- Nc1nc(SCC(=O)N2N=C3/C(=C/c4ccco4)CCCC3C2c2ccco2)n[nH]1 (configuration not stated)
 : 4.4%	-14.8	-22.0	0.1	-7.0	-4.9
- COc1ccc(S(=O)(=O)n2ccnc2C)c(C)c1C
 : -0.1%	4.9	26.5	-0.4	-1.9	0.7
- CCCC(=O)c1c[nH]c(C(=O)NCCc2ccccn2)c1
 : -1.3%	6.6	-3.4	-1.1	-7.9	-0.8
- O=C(N1CCOCC1)C12CC3CC(C1)CC(n1cnc(Cl)n1)(C3)C2
 : -2.8%	-2.7	16.1	1.2	-12.8	-6.7
- COc1ccc(N=NC2C(=O)N(c3ccccc3)N=C2C)cc1 (configuration not stated)
 : 1.1%	?	-73.3*	1.0	-3.6	3.3
- COc1ccc(CCNC(=O)C(C)OC(=O)c2nsc(Cl)c2Cl)cc1OC (configuration not stated)
 : 2.7%	24.3	1.5	-1.6	-7.6	-3.2
- COc1ccc(S(=O)(=O)NCc2ccc3c(c2)cc(C)n3C)cc1
 : 1.2%	-8.5	-21.4	0.2	-6.1	-8.0
- COc1ccc(S(=O)(=O)N2CCN(CC3CC=CCC3)CC2)cc1 (configuration not stated)
 : 2.8%	0.4	1.1	-0.3	-9.2	-3.2
- CCOC(=O)C(=O)Cc1nc(OCc2ccccc2)cc(OCc2ccccc2)n1
 : 4.0%	8.8	8.2	2.0	-1.0	0.0
- CCN(CC)C(=O)c1[nH]cnc1C(=O)NCC(=O)OC(C)(C)C
 : -1.1%	-23.2	12.4	0.5	-4.5	3.9
- NC(=O)c1ccc(NC(=O)COC(=O)CC2CC3CCC2C3)cc1 (configuration not stated)
 : -0.5%	5.3	-1.8	0.2	-5.7	2.1
- C[C@@H](NC(=O)OC(C)(C)C)c1nnc(S(=O)(=O)Cc2ccccc2)o1
 : -0.8%	3.4	16.5	5.5	-23.7	-7.0
- CC1Cc2cc(S(=O)(=O)NCc3ccccc3)ccc2N1C(=O)C1CCC1 (configuration not stated)
 : 10.5%&0.6%	5.5	1.7	2.0&-0.1	-2.6	7.3
- Cc1ccccc1NC(=O)CN1CCN(C)CC1
 : 1.8%	8.2	5.0	-1.1	-3.4	1.9
- O=C(Cn1nnc(-c2ccccc2)n1)N/N=C/c1cc([N+](=O)[O-])ccc1O
 : 9.3%	10.2	?	5.1	-2.3	-0.5
- Cc1cccnc1NC(=O)c1ccc(S(=O)(=O)NCc2ccco2)cc1
 : 3.3%	3.4	-3.5	-0.9	-5.6	-4.1
- COc1cc2c(cc1OC)C(C(=O)NCCN(C)C)C(c1cccs1)N(C)C2=O (configuration not stated)
 : 1.8%	-10.4	0.3	0.2	-16.0	-3.2
- Cc1ccc(NC(=O)C2=C(C(=O)O)CCCC2)cc1F
 : -0.9%	5.7	1.6	0.0	0.8	-1.4
- COc1ccc(C)cc1S(=O)(=O)N(C)CC(=O)Nc1ccccc1
 : -1.0%	6.1	-5.2	2.0	-15.9	0.5
- CCOCCCn1c(=S)[nH]c2cc3c(cc2c1=O)OCO3
 : 8.1%	9.6	2.4	-0.3	-2.0	-0.8
- CN(Cc1ccc(OC(F)F)cc1)C(=O)c1ccc(S(=O)(=O)N(C)c2ccccc2)cc1
 : 1.1%	1.1	2.7	-0.2	6.7	4.7
- N=C(N)c1ccc(OCCCCCOc2ccc(C(=N)N)cc2)cc1
 : 22.3%	-4.3	-1.2	-0.4	-11.7	-2.0
- Cc1cccc(NC(=S)N(CCCN2CCOCC2)Cc2ccco2)c1
 : -0.6%	2.7	3.4	-0.5	-3.3	-0.5
- O=C1c2ccccc2C(c2nnnn2Cc2ccccc2)N1Cc1ccco1 (configuration not stated)
 : 0.8%	1.8	8.0	-0.8	nt	nt
- CCOC(=O)c1cc2sccc2n1Cc1ccccc1
 : -3.7%[38.3 µM]	44.9	31.2	0.3	-9.1	-5.3

More compounds
Every second line gives: PINK1 modulator	CtBP-E1A inh	Six1-Eya2 blk	TRPML1 ag	D2 potentiator	D2 agonist
- CO/N=C(\Cn1ncc(N2CCCC2)c(Cl)c1=O)c1ccc(Cl)cc1
 : -0.2%	-3.2	-9.5	2.4	-7.4	-6.5
- COc1ccc(/C=N/NC(=O)CCOc2ccccc2C)cc1OC
 : 2.8%	2.6	-7.2	0.0	-0.6	0.0
- CCOC(=O)C1CCCCN1Cc1ccc(C(F)(F)F)cc1 (configuration not stated)
 : 0.2%	7.7	5.8	-0.2	10.9	1.1
- Cc1cc(C)c2cc(C(=O)N3CCc4ccccc4C3)[nH]c2c1
 : 4.7%	-24.6	-19.8	-0.4	-9.2	-6.3
- Cc1ccc(-n2c(=S)[nH]c3nc4c(cc3c2=O)COC(C)(C)C4)cc1
 : -0.2%	-3.0	-0.9	-0.8	8.9	-4.9
- CCOC(=O)c1cnc2cc3c(cn2c1=O)CCCC3
 : 0.4%	0.7	-12.0	-1.3	3.9	1.7
- COc1ccc(Cn2c(C(F)(F)F)ccc(C(N)=O)c2=O)cc1
 : 2.0%	3.6	6.7	-1.0	2.7	1.6
- COc1ccc(OC)c(C2C(C(N)=O)=C(C)Nc3nc(CCCO)nn32)c1 (configuration not stated)
 : 0.0%	10.9	5.2	-0.4	0.3	-4.7
- Cc1cc(C)cc(Oc2nc(-c3ccccc3)cc(C)c2S(C)(=O)=O)c1
 : -2.5%	15.2	6.9	2.0	-4.6	-5.0
